# Bioassay records: PubChem, National Center for Advancing Translational Sciences (NCATS)
# VDR inh: inhibitors of human vitamin D receptor | P11473 | VDR-SRC2-3 peptide fluorescence polarization, 2 h | Potency, µM, for inactives: max response, negative = inhibition, most hits filed as inhibitors | actives 0.93% (n = 400,000) | AID 504847; active = well fitted inhibition curve with a large enough effect; inconclusive = small, poorly fitted or top-dose-only effect, or another doubt; inactive = no such curve, though single readings can be large or run the other way; also: series mostly up to about 120 µM
# Target sequence (P11473 whole entry, looked up): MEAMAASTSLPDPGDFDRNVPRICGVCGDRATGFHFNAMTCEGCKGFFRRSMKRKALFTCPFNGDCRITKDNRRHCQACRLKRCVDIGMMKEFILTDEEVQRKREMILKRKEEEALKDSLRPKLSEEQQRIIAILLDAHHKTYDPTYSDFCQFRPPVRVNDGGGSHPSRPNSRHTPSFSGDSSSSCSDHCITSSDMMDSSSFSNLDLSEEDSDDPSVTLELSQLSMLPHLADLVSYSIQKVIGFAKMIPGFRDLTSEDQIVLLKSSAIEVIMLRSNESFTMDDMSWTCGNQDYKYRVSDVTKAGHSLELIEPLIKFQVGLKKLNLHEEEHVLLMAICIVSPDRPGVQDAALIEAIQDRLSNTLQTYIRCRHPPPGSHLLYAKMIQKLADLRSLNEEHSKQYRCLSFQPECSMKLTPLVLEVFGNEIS
#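 VDR–SRC2-3 interaction, FP format. Cmpds 23 nl via pintool, brief spin, 2 h ambient incubation.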
# * hit, by the source's call; ? = inconclusive; & = joins results of further samples. % is scaled to controls: 0 for no effect and ±100 for the full control effect; potency is read from the fitted curve at half-maximal effect.
# The first 15 compounds (preview)
SMILES,VDR inh
O=C(COC(=O)C(O)C(O)C(=O)OCC(=O)c1ccc(C(F)(F)F)cc1)c1ccc(C(F)(F)F)cc1 (stereo unspecified),15%
Cc1ccnc(SCC(=O)c2cc3ccccc3o2)n1,-3%
CS(=O)(=O)N1CCc2cc(C(=O)NCCc3ccccc3)ccc21,11%
COc1ccc(OC)c(C2C(C(=O)N(C)C)=C(C)Nc3nc4ccccc4n32)c1 (stereo unspecified),2%
COc1ccc(-c2cc(=O)oc3cc(OCC(=O)N4C[C@H]5C[C@@H](C4)c4cccc(=O)n4C5)ccc23)cc1,-14%
O=C(CCCCn1c(=O)c2ccccc2n(Cc2ccc(Cl)cc2)c1=O)NCc1ccco1,8%
COc1ccc(Br)cc1-c1nc(C)c(C(C)=O)n1O,-17%
Nc1nc(NCCc2ccccc2)nc(NCCO)c1[N+](=O)[O-],0%
Cc1ccc(CNC(=O)CN(C(=O)C2(C)CC(=O)N=C3C=CC=CN32)c2ccc(F)cc2)cc1 (stereo unspecified),-17%
COc1cc(Nc2nc3c(S(=O)(=O)c4ccc(C)c(C)c4)nnn3c3ccsc23)cc(OC)c1,7%
COc1ccc(CCN2CC(C(=O)OC(C)C(=O)Nc3cccc(Cl)c3)CC2=O)cc1OC (stereo unspecified),-8%
CC(=O)NC(CSc1cc(C)nc2ccc(Br)cc12)C(=O)O (stereo unspecified),0%
Cc1oc2c(C)c3oc(=O)c(CCC(=O)N[C@@H](CC(C)C)C(=O)O)c(C)c3cc2c1C,12%
O=c1c2ccccc2nc(/C=C/c2ccc([N+](=O)[O-])o2)n1CCCO,16%
CCN(CC)c1cc(-c2ccccc2)ncn1,-18%

# This part in full, repeating the preview:
SMILES,VDR inh
O=C(COC(=O)C(O)C(O)C(=O)OCC(=O)c1ccc(C(F)(F)F)cc1)c1ccc(C(F)(F)F)cc1 (stereo unspecified),15%
Cc1ccnc(SCC(=O)c2cc3ccccc3o2)n1,-3%
CS(=O)(=O)N1CCc2cc(C(=O)NCCc3ccccc3)ccc21,11%
COc1ccc(OC)c(C2C(C(=O)N(C)C)=C(C)Nc3nc4ccccc4n32)c1 (stereo unspecified),2%
COc1ccc(-c2cc(=O)oc3cc(OCC(=O)N4C[C@H]5C[C@@H](C4)c4cccc(=O)n4C5)ccc23)cc1,-14%
O=C(CCCCn1c(=O)c2ccccc2n(Cc2ccc(Cl)cc2)c1=O)NCc1ccco1,8%
COc1ccc(Br)cc1-c1nc(C)c(C(C)=O)n1O,-17%
Nc1nc(NCCc2ccccc2)nc(NCCO)c1[N+](=O)[O-],0%
Cc1ccc(CNC(=O)CN(C(=O)C2(C)CC(=O)N=C3C=CC=CN32)c2ccc(F)cc2)cc1 (stereo unspecified),-17%
COc1cc(Nc2nc3c(S(=O)(=O)c4ccc(C)c(C)c4)nnn3c3ccsc23)cc(OC)c1,7%
COc1ccc(CCN2CC(C(=O)OC(C)C(=O)Nc3cccc(Cl)c3)CC2=O)cc1OC (stereo unspecified),-8%
CC(=O)NC(CSc1cc(C)nc2ccc(Br)cc12)C(=O)O (stereo unspecified),0%
Cc1oc2c(C)c3oc(=O)c(CCC(=O)N[C@@H](CC(C)C)C(=O)O)c(C)c3cc2c1C,12%
O=c1c2ccccc2nc(/C=C/c2ccc([N+](=O)[O-])o2)n1CCCO,16%
CCN(CC)c1cc(-c2ccccc2)ncn1,-18%
NS(=O)(=O)c1cc(C(=O)NCC2CCCCC2)ccc1Cl,13%
CCOc1ccc(NC(=S)N2CCCC2)cc1,10%
CC(=O)c1ccc(NC(=O)Cn2cnc(S(=O)(=O)N3CCC(C)CC3)c2)cc1,-17%
N#Cc1ccccc1Sc1ccccc1C(=O)NCC(c1ccco1)N1CCCCC1 (stereo unspecified),3%
Cc1ccc(C)c(NC(=O)c2cc(-c3ccccc3O)n[nH]2)c1,-4%
CCC(C)N(C(=O)COC(=O)C1CCN(S(=O)(=O)c2ccc(C)c(C)c2)CC1)C1CCS(=O)(=O)C1 (stereo unspecified),-9%
Cc1ccc2cc(C3CC(c4cccs4)=NN3S(C)(=O)=O)c(Cl)nc2c1 (stereo unspecified),0%
CCOc1ccc(CC(=O)Nc2c(C(=O)c3ccc(Cl)cc3)oc3ccccc23)cc1OCC,-14%
COc1ccc(NC(=O)CN(C)C(=O)c2cccc(S(=O)(=O)Nc3ccc(F)cc3)c2)cc1,-15%
COc1ccc(Cn2ccn(Cc3cccc(Cl)c3)c(=O)c2=O)cc1,9%
Cc1nn2c(-c3ccc(S(=O)(=O)N4CCN(CCO)CC4)o3)nnc2c2ccccc12,12%
CC(C)c1ccc(S(=O)(=O)N2CCN(C(=O)C3CCCCC3)CC2)cc1,-3%
CCn1nccc1C(=O)NC1=C(C#N)CCC1,-3%
O=S(=O)(c1cccc2cccnc12)N1CCOCC1,-3%
COc1ccc([N+](=O)[O-])c(S(=O)(=O)c2ccccc2)n1,32µM*
O=C(Nc1ccc(N2CCOCC2)cc1)Nc1ccc2nc(-c3ccco3)c(-c3ccco3)nc2c1,17%
Cc1ccc(OCC(=O)c2cc(C)n(C)c2C)c([N+](=O)[O-])n1,-4%
Cc1[nH]ccc(=O)c1OCC(=O)O,-1%
Cc1c(CN(C)C(=O)CSc2nc(-c3ccco3)cc(C(F)(F)F)n2)cnn1C,9%
O=C(CCCO)N/N=C/c1cc(Br)ccc1O,-12%
COc1ccccc1OCCn1cc(C#N)c2ccccc21,15%
O=C(Cc1ccc(Cl)cc1)OCC(=O)N1CCCCCC1,-22%
O=C(N/N=C/c1cccc(C(F)(F)F)c1)C1CCN(c2ncc(C(F)(F)F)cc2Cl)CC1,6%
CCOc1ccc(S(=O)(=O)Nc2nc3cc(OC)ccc3s2)cc1,13%
CCCn1c(SCc2nc(N)nc(N3CCCCC3)n2)nc2c1c(=O)n(C)c(=O)n2C,11%
Cc1ccc(S(=O)(=O)C2C(=O)NC3(C)CC2c2ccccc2O3)cc1 (stereo unspecified),3%
c1ccc(C2Nc3ccccc3C3OCCCC23)cc1 (stereo unspecified),5%
C=CCc1c(C)nc(C)nc1N/N=C/c1ccc(N(C)C)cc1,0%
CC(=O)N[C@@H](C=O)[C@@H](O)[C@H](O)[C@H](O)CO,0%
O=C(Nc1cccc2c1C(=O)NC2=O)c1ccc(N2C(=O)CCC2=O)cc1,?
CN(Cc1ccccc1)C(=O)c1ccc(NC(=O)Cc2ccc(NC(=O)C3CCN(S(=O)(=O)c4cccc([N+](=O)[O-])c4)CC3)cc2)cc1,-22%
Cc1cc(C)cc(N(CC(=O)Nc2ccc(C(F)(F)F)cc2)S(=O)(=O)c2c(C)[nH]c(=O)[nH]c2=O)c1,10%&-7%
O=C(CSc1nnc(-c2ccncc2)n1Cc1ccccc1)NCCc1ccccc1,4%
Cc1ccc(SCC(=O)Nc2ccc3oc(-c4cccc(Cl)c4)nc3c2)cc1,1%
CC(NC(=O)Nc1nnc(C(F)(F)F)s1)(C(F)(F)F)C(F)(F)F,-5%
COc1ccc(Cc2nnc(NC(=O)C(C)C)s2)cc1,3%
CCCCn1c(N)c(N(CCOC)C(=O)COc2ccc(C(C)=O)cc2)c(=O)[nH]c1=O,11%
COc1cc(O)cc(O)c1C(=O)/C=C/c1ccccc1,-14%
CCNC(=O)NC(=O)C(C)OC(=O)CCCc1nc2ccccc2s1 (stereo unspecified),-5%
CCOc1ccc(CCNC(=O)CS(=O)Cc2nc(-c3ccccc3C)oc2C)cc1OCC (stereo unspecified),-11%
CCN(CC)c1ccc(NC(=O)c2cnc3c(-c4ccccc4)c(C)nn3c2C)c(C)c1,0%
Cc1ccc(S(=O)(=O)NNC(=O)Nc2cccc(F)c2)c(C)c1,24%
Cc1oc2cc3oc(=O)c(CCC(=O)NCc4ccccn4)c(C)c3cc2c1C,-12%
CC(=O)N(CCCCN1C(=O)c2ccccc2C1=O)c1ccc(C)cc1,-2%
CCc1cc(=O)oc2cc(C)cc(OCC(=O)C(C)(C)C)c12,6%
# Further entries.
SMILES,VDR inh
C=CCOC(=O)C1=C[C@H](C2CCCCC2)C[C@H](OCc2ccc(CO)cc2)O1,-15%
O=C(c1ccc(OC2CCN(CCc3ccccc3)CC2)cc1)N1CCCC(O)C1 (stereo unspecified),8%
OCC1(Cc2ccc(Cl)cc2)CCN(Cc2ccc(F)c(F)c2)CC1,18%
O=C1NCCN1C(=O)c1cccc(Cl)c1,5%
Cc1ccc(S(=O)(=O)n2cnc3ccccc32)cc1[N+](=O)[O-],-3%
CC(=O)NCCn1c(SCC(=O)c2ccc(Cl)cc2)nc2ccccc2c1=O,-3%
O=C(CCCOc1ccccc1)Nc1ccc(Cl)cn1,-15%
Cc1cc(NC(=O)c2c(F)cccc2Cl)n(-c2nc3ccccc3[nH]2)n1,9%
COc1ccc(Nc2nccc(-c3ccc([N+](=O)[O-])cc3)n2)cc1,0%
COc1ccc(OC)c(-c2csc(NC(=O)C3CSC4(C)CCC(=O)N34)n2)c1 (stereo unspecified),-9%
Cn1nc(-c2ccccc2)c(CN2CCN(c3ncccn3)CC2)c1Cl,-11%
CCOc1ccc(C(=S)N2CCCC2)cc1OC,8%
CC1CC(C)CN(S(=O)(=O)CCNC(=O)c2ccccc2)C1 (stereo unspecified),-8%
CCCNc1ncnc2c1c(-c1ccccc1)cn2-c1ccc(OCC)cc1,7%
COc1ccc(NS(=O)(=O)c2cccc(C(=O)NNC(=O)c3ccc(=O)[nH]c3)c2)cc1,0%
CC(Oc1ccc(Cl)cc1Cl)C(=O)Nc1ccc2oc(-c3ccncc3)nc2c1 (stereo unspecified),-4%
Cc1ccc(C(=O)OCC(=O)c2ccc(CC(=O)N3CCOCC3)s2)cc1C,3%
Cc1ccc(C2C(C#N)=C(N)N(N(C)C)C3=C2C(=O)CCC3)cc1 (stereo unspecified),-19%
COc1ccc(N2CC(C(=O)Nc3cccc(OC(C)C)c3)CC2=O)cc1 (stereo unspecified),-2%
COc1cc(C(CCN2CCCC(C)C2)c2c(OC)cc(OC)c3c2OC(=O)CC3c2ccc(N(C)C)cc2)cc(OC)c1OC (stereo unspecified),-14%&10%
Cc1[nH]c2ccccc2c1C(=O)C(=O)Nc1ccc2c(c1)OCO2,7%
N#C/C(=C/c1ccc(CNS(=O)(=O)c2ccccc2)o1)C(=O)NCc1ccccc1,6%
c1ccc(CN2CCOCC2)nc1,-16%
CCC1(C(N)=O)CC2C=CC1C2 (stereo unspecified),-5%
C=C(C)COc1ccc(-c2n[nH]c(C)c2-c2ccc(OC)c(OC)c2)c(O)c1,6%
Cc1cc(Br)ccc1NC(=O)CN(C)C(=O)c1cc([N+](=O)[O-])ccc1N1CCOCC1,0%
COc1ccc(S(=O)(=O)N(C)CC(=O)NCCC2=CCCCC2)cc1OC,-23%
CN1CCN(S(=O)(=O)c2ccc(-c3noc(C4CCN(S(C)(=O)=O)CC4)n3)cc2)CC1,-15%
Cc1ccsc1C(=O)N1CCCC(CO)(Cc2ccccc2)C1 (stereo unspecified),-5%
Cc1cc(N2CCN(C)CC2)nc2ccc(NC(=O)CCC(=O)NCCCOC(C)C)cc12,7%
O=C1Nc2ccccc2O/C1=C\c1ccccc1,2%
C=C(C)CSc1nnc(-c2cccc(S(=O)(=O)N(C)C)c2)n1-c1cc(OC)ccc1OC,-6%
COc1cccc2cc(C(=O)NCCc3c(C)[nH]c4ccc(F)cc34)c(=O)oc12,-11%
CCN(C(=O)c1cnc(NC(C)C)cc1C(F)(F)F)c1ccc(Cl)cc1,-8%
O=C(CC1N=C2c3ccccc3N=C(SCc3ccc(Cl)cc3)N2C1=O)NCc1ccco1 (stereo unspecified),0%
CC(C)C(C)NC(=O)COC(=O)c1cccc(C(=O)OCC(=O)NC(C)C(C)C)n1 (stereo unspecified),1%
COc1ccc2c(CC(=O)OCC(=O)Nc3cccc(S(N)(=O)=O)c3)coc2c1,-10%
CCOc1ccc(N(CC(=O)Nc2cccc(F)c2)S(=O)(=O)c2c(C)noc2C)cc1,-19%
CC(C)NC(=O)CSc1nc(-c2cccs2)cc(-c2ccccc2)c1C#N,0%
Cc1cc(CNCc2c(C(=O)N(C)Cc3ccccc3)nc3ccccn23)nn1C,-9%
CN1CCN(c2cc(C(F)(F)F)nc3ccc(F)cc23)CC1,-12%
COc1ccc(NC(=O)CCS(=O)(=O)c2cccc3nonc23)cc1Cl,-6%&-8%
Cc1ccccc1C(=O)N1CCC(C(=O)Nc2ccccn2)CC1,7%
O=c1oc2ccc3ccccc3c2cc1-c1nnc(-c2ccccc2)o1,9%
N#Cc1ccc(-c2ccc3c(c2)OCO3)nc1SCC(=O)OCc1ccccc1,0%
COc1cccc(N2CC(C(=O)Nc3nnc(SCC(=O)Nc4ccc(NC(C)=O)cc4)s3)CC2=O)c1 (stereo unspecified),-10%
CC1(C)Cc2c(sc(NC(=O)COc3ccc(Cl)cc3)c2C#N)C(C)(C)N1,4%
CC(=O)NCCN=C(C)c1sc2ccccc2c1O,4%
CCN(CC)C1CCN(Cc2cn[nH]c2-c2ccc(OC)c(F)c2)C1 (stereo unspecified),3%
CCn1nc(-c2ccccc2)c(-c2ccccc2)c(C(=O)Nc2nc(C)c(C(C)=O)s2)c1=O,-1%
COc1ccc(-c2c(C)n([O-])c(C)c(C)[n+]2=O)cc1OC,-1%
CC(C)(C)c1ccc(OCCn2cc(C(=O)c3ccco3)c3ccccc32)cc1,-15%
CC1=C(C(=O)Nc2ccccc2C)C(c2cccs2)n2nc(SCc3ccccc3)nc2N1 (stereo unspecified),2%
CCOC(=O)C1CCN(Cc2ccc(C(=O)OC)cc2)CC1,13%
CCOC(=O)c1cccc(NC(=O)C2CCCN(c3nnc(N4CCCC4=O)s3)C2)c1 (stereo unspecified),-17%
O=C(c1sc2cc(F)ccc2c1Cl)N1CCN(c2cccc(Cl)c2)CC1,14%
COc1ccc(OC)c(S(=O)(=O)NCC(c2cccs2)N2CCc3ccccc3C2)c1 (stereo unspecified),-7%
O=C(NCCc1nc2ccccc2[nH]1)/C(=C/c1ccco1)NC(=O)c1ccc(Br)o1,-6%
O=C(CCC1CCCN(Cc2cccc3c2OCO3)C1)NCc1ccc(F)c(F)c1 (stereo unspecified),-11%
O=C(NCC(c1ccco1)N1CCc2ccccc2C1)C(=O)Nc1ccccc1 (stereo unspecified),-9%

# Some of the compounds tested, so the mix of outcomes need not match the whole.
